Ran importin: inhibitors of Ran–importin-beta complex formation, primary screen, biochemical, CFP-Ran/YFP-importin-beta FRET, RCC1, cell-free (AID 434961) | Regulator of chromosome condensation (Homo sapiens) + GTP-binding nuclear protein Ran … | CFP-Ran/YFP-importin-beta FRET, cell-free; active compounds read high | inhibition, % | 7,700 tested, 0.2% active;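 active = more than half of the replicate wells above 15% inhibition; inconclusive = exactly half above it; inactive = fewer than half above it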;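 also: 0% = DMSO wells and 100% inhibition = RanGDP control wells on each plate; stock of unstated strength diluted about 400-fold; mean of two wells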
* marks the source's active call; other numbers are inactive results; ? = inconclusive. Not all compounds are listed, so the mix of outcomes need not match the whole.

entry | Ran importin | mol
1 | ? | C[C@H](CO)N1C[C@H](C)[C@H](CN(C)C)OCCCC[C@H](C)Oc2ccc(NC(=O)Cc3ccccc3)cc2C1=O
2 | -3.2 | C[C@@H]1CN([C@H](C)CO)C(=O)c2cc(NC(=O)CCCN(C)C)ccc2O[C@@H](C)CCCCO[C@H]1CN(C)C(=O)CCCN(C)C
3 | ? | CC(C)NC(=O)N(C)C[C@@H]1Oc2ccc(NC(=O)CCN3CCOCC3)cc2CC(=O)N([C@H](C)CO)C[C@H]1C
4 | -1.0 | Cc1noc(C)c1S(=O)(=O)Nc1cccc2c1O[C@H](CN(C)Cc1ccc(C(=O)O)cc1)[C@H](C)CN([C@@H](C)CO)C2=O
5 | 1.8 | COc1ccc(S(=O)(=O)Nc2ccc3c(c2)C(=O)N([C@H](C)CO)C[C@H](C)[C@@H](CN(C)Cc2ccncc2)O3)cc1
6 | 1.0 | COc1ccc(S(=O)(=O)N(C)C[C@H]2Oc3ccc(NC(=O)Nc4cccc5ccccc45)cc3CC(=O)N([C@H](C)CO)C[C@@H]2C)cc1
7 | 5.4 | CC(C)NC(=O)Nc1ccc2c(c1)C(=O)N([C@@H](C)CO)C[C@H](C)[C@H](CN(C)S(=O)(=O)c1ccc(F)cc1)OCCCC[C@H](C)O2
8 | 0.2 | C[C@H]1CN([C@@H](C)CO)C(=O)c2cccc(NC(=O)Nc3ccc(C(F)(F)F)cc3)c2O[C@H]1CN(C)CC1CC1
9 | -5.0 | CC(C)NC(=O)N(C)C[C@H]1OCCCC[C@@H](C)Oc2ccc(NC(=O)Cc3ccccc3)cc2C(=O)N([C@@H](C)CO)C[C@H]1C
10 | -2.3 | Cc1noc(C)c1NC(=O)N(C)C[C@@H]1Oc2ccc(NC(=O)CCN3CCOCC3)cc2CC(=O)N([C@@H](C)CO)C[C@H]1C
11 | 1.8 | C[C@@H]1CCCCO[C@@H](CN(C)S(=O)(=O)c2cccs2)[C@@H](C)CN([C@H](C)CO)C(=O)c2cc(NS(C)(=O)=O)ccc2O1
12 | 0.5 | C[C@H](CO)N1C[C@H](C)[C@@H](CN(C)Cc2ccc(-c3ccccc3)cc2)Oc2ccc(NS(=O)(=O)c3cccs3)cc2C1=O
13 | 0.0 | C[C@H](CO)N1C[C@H](C)[C@H](CN(C)S(=O)(=O)c2cccs2)Oc2ccc(NS(=O)(=O)c3ccccc3)cc2CC1=O
14 | 6.3 | CC(C)NC(=O)Nc1cccc2c1O[C@H](CN(C)C)[C@@H](C)CN([C@@H](C)CO)C2=O
15 | -2.7 | C[C@@H]1CN([C@@H](C)CO)C(=O)c2cc(N(C)C)ccc2O[C@@H](C)CCCCO[C@H]1CN(C)S(=O)(=O)c1cccs1
16 | 9.7 | C[C@H]1CN([C@@H](C)CO)C(=O)c2cccc(NC(=O)c3ccncc3)c2O[C@@H]1CN(C)Cc1ccc(C(F)(F)F)cc1
17 | -0.3 | C[C@H](CO)N1C[C@H](C)[C@@H](CN(C)C(=O)Nc2cccc3ccccc23)OCCCC[C@H](C)Oc2ccc(NC(=O)c3ccncc3)cc2C1=O
18 | 4.3 | Cc1ccc(S(=O)(=O)N(C)C[C@H]2Oc3ccc(NS(C)(=O)=O)cc3C(=O)N([C@H](C)CO)C[C@H]2C)cc1
19 | -1.8 | C[C@H](CO)N1C[C@H](C)[C@H](CN(C)Cc2ccc(C(=O)O)cc2)Oc2ccc(NC(=O)Nc3ccc(C(F)(F)F)cc3)cc2CC1=O
20 | 3.5 | C[C@@H]1CCCCO[C@@H](CN(C)Cc2ccncc2)[C@H](C)CN([C@@H](C)CO)C(=O)c2cc(N(C)C)ccc2O1
21 | 0.5 | CC(C)NC(=O)Nc1cccc2c1O[C@H](CN(C)Cc1ccc(Cl)c(Cl)c1)[C@@H](C)CN([C@H](C)CO)C2=O
22 | -1.1 | COc1ccc(CN(C)C[C@@H]2Oc3ccc(NS(=O)(=O)c4ccc(OC)cc4)cc3CC(=O)N([C@@H](C)CO)C[C@@H]2C)cc1
23 | ? | CNC[C@H]1Oc2ccc(NC(=O)Cc3cn(C)c4ccccc34)cc2CC(=O)N([C@@H](C)CO)C[C@@H]1C
24 | 8.8 | Cc1noc(C)c1S(=O)(=O)N(C)C[C@@H]1Oc2ccc(N(C)C)cc2CC(=O)N([C@@H](C)CO)C[C@@H]1C
25 | -0.6 | C[C@@H]1CN([C@@H](C)CO)C(=O)CCCn2cc(nn2)CO[C@H]1CN(C)C(=O)Nc1ccccc1F
26 | -1.6 | C[C@H]1CN([C@@H](C)CO)C(=O)c2cc(NC(=O)CCN3CCOCC3)ccc2O[C@H]1CN(C)C
27 | -4.0 | CC(C)NC(=O)N(C)C[C@@H]1OCCCC[C@@H](C)Oc2ccc(NC(=O)C3CCCCC3)cc2C(=O)N([C@@H](C)CO)C[C@@H]1C
28 | -2.6 | C[C@@H]1CN([C@H](C)CO)C(=O)Cc2cc(NC(=O)Cc3ccccc3)ccc2O[C@@H]1CN(C)CC1CC1
29 | ? | C[C@@H]1CN([C@H](C)CO)C(=O)Cc2cc(NS(C)(=O)=O)ccc2O[C@@H]1CN(C)Cc1ccc(C(F)(F)F)cc1
30 | 3.9 | C[C@@H]1CN([C@@H](C)CO)C(=O)c2cc(NS(C)(=O)=O)ccc2O[C@@H](C)CCCCO[C@H]1CN(C)S(=O)(=O)c1cn(C)cn1
31 | 4.4 | C[C@@H]1CCCCO[C@@H](CN(C)S(=O)(=O)c2ccccc2)[C@H](C)CN([C@@H](C)CO)C(=O)c2cc(NC(=O)CCC(F)(F)F)ccc2O1
32 | 1.0 | C[C@H](CO)N1C[C@H](C)[C@@H](CN(C)Cc2ccc(C(=O)O)cc2)Oc2c(NC(=O)c3ccncc3)cccc2C1=O
33 | 12 | C[C@H]1CN([C@@H](C)CO)C(=O)c2cccc(NC(=O)Nc3ccc4c(c3)OCO4)c2O[C@H]1CN(C)C(=O)NC1CCCCC1
34 | 2.3 | C[C@@H]1CN([C@H](C)CO)C(=O)c2cc(NC(=O)C3CC3)ccc2O[C@H]1CN(C)Cc1ccc2c(c1)OCO2
35 | -5.3 | C[C@@H]1CN([C@H](C)CO)C(=O)c2cccc(NC(=O)C3CCOCC3)c2O[C@@H]1CN(C)C(=O)Nc1cccc2ccccc12
36 | 0.7 | C[C@H]1CN([C@@H](C)CO)C(=O)Cc2cc(N(C)C)ccc2O[C@@H]1CN(C)Cc1ccc(C(F)(F)F)cc1
37 | -6.2 | C[C@@H]1CN([C@H](C)CO)C(=O)Cc2cc(NS(C)(=O)=O)ccc2O[C@@H]1CN(C)S(=O)(=O)c1cn(C)cn1
38 | 1.7 | COc1ccc(NC(=O)Nc2cccc3c2O[C@H](CN(C)Cc2ccncc2)[C@@H](C)CN([C@H](C)CO)C3=O)cc1
39 | -3.4 | C[C@@H]1CN([C@@H](C)CO)C(=O)c2cccc(NS(=O)(=O)c3ccc(Cl)cc3)c2O[C@@H]1CN(C)C(=O)Nc1ccc(C(F)(F)F)cc1
40 | 1.0 | C[C@H](CO)N1C[C@H](C)[C@H](CN(C)Cc2ccc(C(=O)O)cc2)Oc2ccc(NC(=O)Nc3ccc4c(c3)OCO4)cc2C1=O

Reprinted from above for reference:
entry | Ran importin | mol
38 | 1.7 | COc1ccc(NC(=O)Nc2cccc3c2O[C@H](CN(C)Cc2ccncc2)[C@@H](C)CN([C@H](C)CO)C3=O)cc1
39 | -3.4 | C[C@@H]1CN([C@@H](C)CO)C(=O)c2cccc(NS(=O)(=O)c3ccc(Cl)cc3)c2O[C@@H]1CN(C)C(=O)Nc1ccc(C(F)(F)F)cc1
40 | 1.0 | C[C@H](CO)N1C[C@H](C)[C@H](CN(C)Cc2ccc(C(=O)O)cc2)Oc2ccc(NC(=O)Nc3ccc4c(c3)OCO4)cc2C1=O

More compounds follow:
entry | Ran importin | mol
41 | 1.2 | C[C@H](CO)N1C[C@H](C)[C@H](CN(C)C(=O)Nc2ccccc2)Oc2ccc(NS(=O)(=O)c3ccccc3)cc2CC1=O
42 | ? | COc1ccc(S(=O)(=O)N(C)C[C@@H]2Oc3c(NS(=O)(=O)c4ccccc4)cccc3C(=O)N([C@H](C)CO)C[C@@H]2C)cc1
43 | -3.9 | C[C@@H]1CN([C@@H](C)CO)C(=O)c2cc(NS(=O)(=O)c3ccccc3)ccc2O[C@@H]1CN(C)C
44 | 3.1 | C[C@@H]1CN([C@H](C)CO)C(=O)CCCn2cc(nn2)CO[C@H]1CN(C)S(=O)(=O)c1cccs1
45 | 1.6 | COc1ccc(CN(C)C[C@@H]2Oc3ccc(NC(=O)Nc4ccc5c(c4)OCO5)cc3C(=O)N([C@@H](C)CO)C[C@H]2C)cc1
46 | -1.9 | CC(C)NC(=O)N(C)C[C@@H]1OCCCC[C@@H](C)Oc2ccc(NC(=O)c3ccncc3)cc2C(=O)N([C@@H](C)CO)C[C@H]1C
47 | 3.2 | C[C@H]1CN([C@@H](C)CO)C(=O)c2cccc(NC(=O)Nc3cccc4ccccc34)c2O[C@H]1CN(C)CC1CC1
48 | 1.9 | C[C@H]1CN([C@@H](C)CO)C(=O)c2cccc(NC(=O)c3ccc(-c4nccs4)cc3)c2O[C@@H]1CN(C)C(=O)NC1CCCCC1
49 | 5.1 | Cc1noc(C)c1S(=O)(=O)N(C)C[C@@H]1Oc2c(NS(=O)(=O)c3cccs3)cccc2C(=O)N([C@H](C)CO)C[C@@H]1C
50 | 4.5 | C[C@@H]1CN([C@H](C)CO)C(=O)CCCn2cc(nn2)CO[C@@H]1CN(C)Cc1ccc(C(F)(F)F)cc1
51 | 5.7 | Cc1noc(C)c1NC(=O)N(C)C[C@H]1OCc2cn(nn2)CCCC(=O)N([C@H](C)CO)C[C@@H]1C
52 | -0.6 | C[C@H]1CCCCO[C@H](CN(C)C(=O)CCC(F)(F)F)[C@@H](C)CN([C@@H](C)CO)C(=O)c2cc(NC(=O)Cc3ccccc3)ccc2O1
53 | 0.7 | COc1ccccc1NC(=O)N(C)C[C@@H]1OCc2cnnn2CCCC(=O)N([C@@H](C)CO)C[C@@H]1C
54 | -0.3 | C[C@H]1CCCCO[C@@H](CN(C)C(=O)c2ccncc2)[C@@H](C)CN([C@@H](C)CO)C(=O)c2cc(NC(=O)CCC(F)(F)F)ccc2O1
55 | 1.0 | C[C@H]1CCCCO[C@H](CN(C)C)[C@@H](C)CN([C@@H](C)CO)C(=O)c2cc(NC(=O)Nc3ccc(F)cc3)ccc2O1
56 | -2.4 | COc1ccc(NC(=O)Nc2cccc3c2O[C@H](CN(C)CC2CC2)[C@@H](C)CN([C@H](C)CO)C3=O)cc1

An excerpt from above in order of length of the SMILES, falling:
entry | Ran importin | mol
52 | -0.6 | C[C@H]1CCCCO[C@H](CN(C)C(=O)CCC(F)(F)F)[C@@H](C)CN([C@@H](C)CO)C(=O)c2cc(NC(=O)Cc3ccccc3)ccc2O1
13 | 0.0 | C[C@H](CO)N1C[C@H](C)[C@H](CN(C)S(=O)(=O)c2cccs2)Oc2ccc(NS(=O)(=O)c3ccccc3)cc2CC1=O
21 | 0.5 | CC(C)NC(=O)Nc1cccc2c1O[C@H](CN(C)Cc1ccc(Cl)c(Cl)c1)[C@@H](C)CN([C@H](C)CO)C2=O
14 | 6.3 | CC(C)NC(=O)Nc1cccc2c1O[C@H](CN(C)C)[C@@H](C)CN([C@@H](C)CO)C2=O

(cont.)
entry | Ran importin | mol
57 | 3.2 | C[C@@H]1CN([C@@H](C)CO)C(=O)c2cccc(N(C)C)c2O[C@@H]1CN(C)Cc1ccc(C(F)(F)F)cc1
58 | -1.0 | C[C@@H]1CN([C@H](C)CO)C(=O)CCCn2cc(nn2)CO[C@@H]1CN(C)S(=O)(=O)c1cn(C)cn1
59 | 5.4 | COc1ccc(S(=O)(=O)Nc2cccc3c2O[C@@H](CN(C)Cc2ccncc2)[C@@H](C)CN([C@H](C)CO)C3=O)cc1
60 | 2.9 | CC(C)NC(=O)N(C)C[C@@H]1OCCCC[C@@H](C)Oc2ccc(NC(=O)c3ccncc3)cc2C(=O)N([C@H](C)CO)C[C@@H]1C
61 | -1.2 | C[C@@H]1CN([C@H](C)CO)C(=O)c2cc(NC(=O)Cn3cnnn3)ccc2O[C@H]1CN(C)S(=O)(=O)c1cccs1
62 | -5.4 | C[C@H](CO)N1C[C@H](C)[C@H](CN(C)C)OCCCC[C@H](C)Oc2ccc(NC(=O)C3CCCCC3)cc2C1=O
63 | -0.5 | CNC[C@@H]1Oc2ccc(NC(=O)NC(C)C)cc2CC(=O)N([C@@H](C)CO)C[C@H]1C
64 | 1.1 | C[C@H](CO)N1C[C@H](C)[C@H](CN(C)S(=O)(=O)c2cn(C)cn2)Oc2ccc(NS(=O)(=O)c3cn(C)cn3)cc2C1=O

Assay outcomes: PubChem BioAssay, Broad Institute
